# CBX7 AlphaScr = CBX7 inhibition, primary AlphaScreen | O95931 | AlphaScreen His6-CBX7 / biotin-H3K27me3 peptide binding; stronger effect = lower value | 66,000 compounds, 1.1% hits | normalised signal (fraction of DMSO) (concentration not given with the values) | AID 1224903; in the data active = normalised signal below about 0.5;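 also: 100 nL library stock added to about 20 µL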
# Target sequence (O95931 whole entry, looked up): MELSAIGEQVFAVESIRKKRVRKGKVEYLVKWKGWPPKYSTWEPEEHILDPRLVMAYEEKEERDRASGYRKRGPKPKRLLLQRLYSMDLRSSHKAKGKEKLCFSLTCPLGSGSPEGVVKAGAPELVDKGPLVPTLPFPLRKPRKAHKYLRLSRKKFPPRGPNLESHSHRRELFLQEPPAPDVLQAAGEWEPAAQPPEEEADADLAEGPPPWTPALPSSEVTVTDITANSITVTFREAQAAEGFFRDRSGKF
# CBX7 AlphaScr z-score = further read-out of CBX7 AlphaScr, marked with its call; z-score; measured here: z-score of CBX7 signal; some inactives read as strong as hits; reference of the scale not given here;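 same signal on another scale; lower means less binding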
# * marks the source's active call; other numbers are inactive results; & = joins results of further samples. Not all compounds are listed. The share of hits here may be higher or lower than overall.
SMILES,CBX7 AlphaScr,CBX7 AlphaScr z-score
CCOC(=O)c1c(C)n(C)c2ccc(OCC(O)CN3CCN(Cc4ccccc4)CC3)cc12 (centres undefined),1.1,2.6
CC(C)(C)n1cnc2cc(NC(=O)c3ccccc3)ccc21,1,-0.0032
CCOC(=O)c1ccc(NC(=O)c2csc3c2CCCC3)cc1,1.1,5.2
CCc1ccc(NC(=O)N(CCC(C)C)C(C)c2ccccn2)cc1 (centres undefined),0.88,-2.2
Cc1ccc(S(=O)(=O)N(CC(O)CN2CCCC2)c2ccccc2)cc1 (centres undefined),1.4,0.85
COc1ccccc1CNC(=O)CSCc1nc(-c2ccc(C)cc2)oc1C,0.97,-0.48
O=C(C1CCCN(c2nc3ccccc3[nH]2)C1)N1CCCC1 (centres undefined),0.91,-1
COc1ccccc1NC(=O)Cn1cnc2sc(C(=O)NC3CCCC(C)C3C)c(C)c2c1=O (centres undefined),0.99,-0.058
CCOc1ccc(-c2nnc(NC(C)=O)s2)cc1,0.98,-0.54
CCn1cc(C(=O)Nc2ccc(F)cc2Cl)c2cc(OC)c(OC)cc2c1=O,1,0.16
O=C(c1cnc(N2CCN(c3ncccn3)CC2)c2ccccc12)N1CCCC1,1.1,0.47
COc1cccc(C(c2sc3nc(C)nn3c2O)N2CCC(O)CC2)c1 (centres undefined),0.98,-1.1
CC1CC(C)CN(S(=O)(=O)c2ccc(C(=O)Nc3nc(-c4ccccn4)cs3)cc2)C1 (centres undefined),1.2,3.5
Cc1ccc(CCNC(=O)C(C)N2C(=O)CC(C)(C)Sc3ccccc32)cc1 (centres undefined),1,0.75
Cc1nc2c(C(=O)NCCCN(Cc3ccccc3)C(C)C)cnn2c(C)c1Cc1ccccc1,0.97,-0.73
COc1ccccc1C(=O)Nc1ccc(-c2csc(-c3ccccc3)n2)cc1,1.1,0.18
CCCCN(C)C(=O)c1c[nH]c2ccc(S(=O)(=O)N(C)c3ccccc3CC)cc2c1=O,1,0.39
O=C(Nc1cccc(-c2nc3ccccc3[nH]2)c1)c1cccc(Cl)c1,1.1,1
Cc1ccc(C(=O)Nc2nnc(CC(C)C)s2)cc1,0.99,-0.062
CCOC(=O)c1ccc2nc(C)cc(Nc3ccc(N4CCOCC4)cc3)c2c1,0.79,-2.4
COCCCNC(=O)c1nc(-c2ccccc2C)oc1C,1.1,0.18
COc1ccccc1NC(=O)C1(c2ccc(OC)c(OC)c2)CCOCC1,1.2,1.8
COc1ccc(/C=C/c2nc(-c3cccnc3)no2)cc1OC,0.92,-0.98
O=C(CCn1c(=O)[nH]c2ccccc2c1=O)N1CCN(c2ccccn2)CC1,1,0.14
OCC1N=C(c2ccccn2)OC1c1ccccc1 (centres undefined),1,0.83
CCOc1ccc(NC(=O)Nc2ccc3c(c2)N(C)C(=O)CS3)cc1,0.99,-0.29
COc1ccc(-c2nc(CSCC(=O)N3CCN(c4ncccn4)CC3)c(C)o2)cc1,1.1,2.8
COc1ccc(Nc2cc(C(=O)NCCCSC3CCCCC3)c3ccccc3n2)c(OC)c1,0.91,-1.1
COc1cccc(NC(=O)N2CCC(N(C)C(C)C)CC2)c1,0.84,-1.8
CCOC(=O)c1cnc2c(C)cc(Cl)cc2c1Nc1ccccc1OCC,0.92,-0.27
Cc1ccccc1Cn1nc(C)c(NC(=O)c2cc(C(C)C)on2)c1C,0.92,-1.4
Cc1ccc(-c2nn3c(C)nnc3s2)cc1NC(=O)COc1cc(C)c(Cl)c(C)c1,0.95,-1.6
CCN(CC)S(=O)(=O)c1ccc(-c2csc(Nc3ccccc3OC)n2)cc1,0.93&0.89,-0.45&-1.5
O=C(Cn1ncc2c1-c1ccccc1OC2)Nc1cccc(Cl)c1,0.83,-2.5
COc1cc2c(C(=O)NCc3ccccn3)cn(C)c(=O)c2cc1OC,1,0.32
COc1ccc(C2CC(c3ccc(OC(F)F)cc3)n3nnnc3N2)cc1 (centres undefined),1.1,1.1
CCC1Oc2ccccc2N(CC(=O)NCCCN2CCN(CC)CC2)C1=O (centres undefined),0.99,-0.25
O=C(NCc1cccc(F)c1)C1CCN(C(=O)c2sccc2-n2cccc2)CC1,0.96,-1.6
O=C(Cn1nnc(-c2ccccc2F)n1)N1CCCCC1,1.1,1.5
COc1ccc(CCNc2ccncn2)cc1OC,0.74,-0.45
CCCOc1ccc(N2C(=O)CC(NCCCN3CCN(Cc4ccccc4)CC3)C2=O)cc1 (centres undefined),0.93,-1.8
CCN(CCCNC(=O)C1CCN(c2nc3ccc(OC)cc3s2)CC1)c1ccccc1,0.84,-1.7
CC(CCc1ccccc1)NC(=O)c1ccc2c(c1)N(Cc1ccc(Cl)cc1)CCS2 (centres undefined),0.88,-1.8
Cc1ccc(-c2nc(CSCC(=O)N3CCN(c4ccccn4)CC3)c(C)o2)cc1,0.95,-1.1
O=C(c1cnc(N2CCN(c3ncccn3)CC2)c2ccccc12)N1CCN(c2ccc(F)cc2)CC1,0.64,-2.3
COc1ccc(Cl)cc1NC1c2ccccc2C(=O)N1c1ccccc1C (centres undefined),0.96,-1.2
Cc1c(C(=O)Nc2ccc(F)cc2)sc2ncn(CC(=O)N3CCOCC3)c(=O)c12,0.95,-0.32
COc1cccc(OC)c1C(=O)Nc1c2c(nn1-c1ccccc1)CSC2,1.1,2.4
Fc1ccccc1CSc1nc2ccncc2n1Cc1c(F)cccc1Cl,0.98,-0.55
Cc1cccc(NC(=O)c2sc3ncn(CC(=O)N4CCC(C)CC4)c(=O)c3c2C)n1,1.1,0.56
Fc1ccccc1-c1nc(Nc2ccccc2Cl)c2ccccc2n1,1.1,0.17
COc1cccc(-c2cc(C(F)(F)F)nc(N3CCN(Cc4ccccc4)CC3)n2)c1,1.1,1
COc1ccc2cc(CCNC(=O)CC(C)(C)C)c(=O)[nH]c2c1,0.98,-0.52
Cc1nc(N2CCC(C)CC2)c2c(C)c(C(=O)N3CCOCC3)sc2n1,0.85,-2.1
CC(=O)c1c(N2CCOCC2)nc2ccc(Cl)cc2c1-c1ccccc1,1,0.6
O=C1CC(NCc2cccnc2)C(=O)N1c1ccccc1 (centres undefined),0.9,-1.7
Cc1ccc(NC(=O)c2cc3n(n2)C(C(F)(F)F)CC(c2ccc4c(c2)OCO4)N3)cc1Cl (centres undefined),0.84,-0.16
O=C(NCc1cccnc1)c1ccc2c(c1)N(Cc1ccccc1)CCS2,0.51,-0.65
Cc1ccc(-c2cc(C(=O)NCc3ccccc3Cl)c3ccccc3n2)cc1C,1.1,0.7
CC(=O)c1cccc(NC(=O)c2cnn3c(C(F)(F)F)cc(-c4ccc(C)cc4)nc23)c1,0.94,-0.77

# (more compounds)
SMILES,CBX7 AlphaScr,CBX7 AlphaScr z-score
CCOc1ccccc1NC(=O)c1c(NCc2cccs2)sc2c1CCC(C)C2 (centres undefined),0.99,-0.65
COc1ccc(OC)c(NC(=O)CSc2nccn2-c2cccc(C)c2)c1,0.68,-0.32
COc1ccc(CNC(=O)CN2CCN(Cc3ccccc3)C2=O)cc1,1.1,0.94
CCNc1cc(Nc2ccccc2)c2c3c(onc13)-c1ccccc1C2=O,0.82,-3.6
Fc1ccc(N2CCN(c3nc4cccnc4s3)CC2)cc1,0.95,-1.1
CCCCN1CC(C(=O)NCCCN2CCC(C)CC2)CC1=O (centres undefined),0.99,-0.26
CCOC(=O)N1CCc2c(sc(NCc3c[nH]c4ccccc34)c2C(=O)Nc2ccccc2OCC)C1,0.92,-4.4
CCc1ccc(NC(=O)COC(=O)CCCC2=NS(=O)(=O)c3ccccc3N2)cc1,0.82,-1.4
O=C(Nc1nnc(Cc2ccc(Cl)cc2)s1)C(F)(F)F,1.1,1.3
Cc1sc(-n2cccc2)c(C(=O)NCc2ccc(Cl)cc2)c1C,0.95,-1.1
CCC1CCCCN1S(=O)(=O)c1ccc2[nH]c(=O)cc(C(=O)NC3CCCCC3C)c2c1 (centres undefined),0.95,-1.6
CCOC(=O)c1cnc2ccc(OC)cc2c1Nc1ccc(OCC)cc1,0.53,-2.1
CN1CCN(c2ncccc2C(=O)Nc2cccc(C(F)(F)F)c2)CC1,0.87,-2.8
O=C(NCCN1CCCCCC1)C1CCCN(c2nc3ccccc3o2)C1 (centres undefined),1,0.41
COc1cccc(Nc2nc(-c3ccc(Cl)cc3)nc3ccccc23)c1,1.2,3.1
CN(CCNC(=O)C1CCN(S(=O)(=O)c2cnc[nH]2)CC1)Cc1ccccc1,0.97,-0.36
Cn1c(C(Cc2ccccc2)NC(=O)c2ccccc2)nc2ccccc21 (centres undefined),1,0.0063
O=C(COc1ccc(Cl)cc1)NCc1nnc(SCC(=O)Nc2ccc3c(c2)OCO3)o1,1.1,1.8
O=C(NCc1ccc(Cl)cc1)c1cc(C2CC2)on1,0.95,-0.38
COc1ccc(-c2nc3ccccc3o2)cc1NC(=O)COc1ccc(Cl)cc1,1,0.032
Cc1ccccc1OC1C(=O)N(Cc2ccc3c(c2)OCO3)C1c1sccc1C (centres undefined),1,1.4
CCN(CC)S(=O)(=O)c1ccc(-c2csc(Nc3ccc(C)cc3)n2)cc1,0.85&0.88,-1.1&-1.6
Cc1ccccc1Nc1c(-c2ccc(N(C)C)cc2)nc2scc(-c3ccccn3)n12,0.88,-2.3
Cc1nc2sc(C(c3cccs3)N3CCN(c4ccccc4F)CC3)c(O)n2n1 (centres undefined),1,1.6
O=S(=O)(Nc1nc2ccccc2nc1Nc1cccc(C(F)(F)F)c1)c1ccc(Cl)cc1,0.83,-4.8
CCc1nc2ccc(C(=O)NCc3cccnc3)cc2nc1CC,1,0.098
CC(CCc1ccccc1)NC(=O)c1cc2sc(Cl)cc2n1C (centres undefined),0.97,-1.2
Cc1cccc(N2CCN(C(=O)c3cnn4c(C)c(Cc5cccc(Cl)c5)c(C)nc34)CC2)c1C,0.81,-7.3
CCN(CC)S(=O)(=O)c1ccc2c(c1)N(CC(=O)Nc1nc3ccc(C)cc3s1)C(=O)CO2,0.92,-3.9
COc1cc(-c2nc3ccccc3[nH]2)ccc1O,0.95,-1.3
Cc1ccc(C(=O)Nc2cccc(-c3nc4cc(C)ccc4o3)c2)cc1,1.2,2
N#Cc1ccc(-c2nc(Cc3c(F)cccc3Cl)no2)cc1,1.1,1.4
Cc1ccc(NC(=O)CCc2nnc3ccc(N4CCN(C)CC4)nn23)cc1,0.94,-1
CC(C)(C)c1ccc(-c2csc(NC(=O)c3cccc(F)c3)n2)cc1,1,0.45
COc1ccccc1-c1cc(C(=O)NCCCN2CCOCC2)no1,0.92,-0.87
COc1ccc(-c2noc(Cc3ccccc3OC)n2)cc1,1.2,9.8
CCOc1ccc(NS(=O)(=O)c2ccc3[nH]cc(C(=O)NCCc4ccccc4)c(=O)c3c2)cc1,0.81,-2.5
Cc1ccc2c(c1)NC(=O)C(CC(=O)NCCCN1CCN(Cc3ccccc3)CC1)O2 (centres undefined),1,0.41
COc1ccc(OC)c(-c2cc(C(=O)NCC(C)C)no2)c1,1,0.47
COc1cc(Cl)c(C)cc1NC(=O)CCc1c(C)nc2cc(-c3ccccc3OC)nn2c1C,0.94,-1.6
COC(=O)c1c[nH]n2c(NC3CCC(C)CC3)c(-c3ccc(OC(C)C)c(OC)c3)nc12 (centres undefined),0.12*,-0.99*
Cc1cc(C)nc(NC(=O)c2c(-c3ccccc3Cl)noc2C)n1,1.1,0.59
CCCCCC(=O)Nc1cccc(-c2nc3ncccc3o2)c1,1,0.034
CCC(=O)Nc1cccc(-c2nc3cc(C)ccc3o2)c1,1.1,3.2
COc1ccc(C(=O)CSc2n[nH]c(-c3ccncc3)n2)cc1C,0.86,-0.29
O=C(Nc1ccc(-c2csc(NC(=O)c3ccccc3)n2)cc1)c1ccc(Cl)cc1,0.99,-0.28
CCc1ccc(NC(=O)Cn2cc(S(=O)(=O)c3ccccc3)c(=O)c3cc4c(cc32)OCO4)cc1,0.85,-2
CCOCCCNC(=O)CCc1nc(-c2ccc(OC)cc2)no1,0.89,-1.6
O=c1cc(Cc2nnc(SCc3ccccc3)n2-c2ccccc2)[nH]c(=O)[nH]1,0.88,-4.3
Cc1c(C(=O)NC(C)C)oc2ccc(S(=O)(=O)N3CCOCC3)cc12,1.1,1.4
Cc1ccc(-c2nc(-c3cccnc3)no2)cc1C,0.99,-0.007
O=C1CC(c2cc(Br)ccc2F)c2cc3c(cc2N1)OCO3 (centres undefined),0.98,-0.98
COc1ccc(C(C)=O)cc1N1C(=O)C2C(C1=O)C1C=CC2C12CC2 (centres undefined),0.82,-2.2
O=C(Nc1nn(-c2ccccc2)cc1-c1ccccc1)c1ccc2c(c1)OCO2,1,0.24

# Assay outcomes deposited in PubChem by several laboratories.
